Bfl-1 A1 inh – inhibitors of the anti-apoptotic protein A1, read as caspase activation | MEF A1-2A-BIM cells, Caspase-Glo 3/7 luminescence, 3 h; percent of clofoctol response, vehicle zero | caspase activation, % (no concentration beside the values) | 330,000 tested, 0.066% active | AID 2462;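 active = over half of replicate activation scores above 10%, or exactly half above 10 with the replicate mean above 10; inconclusive = replicate mean below 10 yet half the replicates above 10; inactive = over half of replicates below 10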;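 also: wells of about 30 µL received 50 nL stock; many hits fall short of the cut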
Calb FLC – C. albicans growth modulation with fluconazole; growth inhibition, % (test concentration not listed); 300,000 tested, 0.57% active; AID 1979; C. albicans CaCi-2 (fluconazole-resistant clinical isolate) + fluconazole, Alamar Blue growth, 48 h;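 active = most replicates above 75%; inconclusive = exactly half above 75%; inactive = most below 75%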;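 also: all wells also contain fluconazole at 8 µg/ml as a sub-toxic cotreatment; 0% = median of DMSO wells and 100% = median of geldanamycin control wells; wells of about 8 µL received 7.5 nL stock; the first replicate is given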
Ecoli rRNA inh – inhibitors of bacterial rRNA selective over humanized ribosomes | GFP signal change (wild-type ribosome), % (concentration not given with the values) | AID 720706 | E. coli WT GFP vs humanized-ribosome RFP mutants, fluorescence, 24 h; stronger effect = lower value; DMSO median 0, no signal -100 | 350,000 tested, 1.6% active;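 active = significant combined selectivity score with lowered wild-type GFP, culture density cut under 30%, mutant RFP and density less affected; inactive = any of these conditions unmet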; also: one replicate is shown; some compounds called inactive have numbers as strong as hits
Vif TR-FRET – HIV-1 Vif–A3G interaction blockers – biochemical, TR-FRET, GST-Vif 1-94, biotin-A3G peptide, dose response retest, primary screen (AID 1117319); inhibition, %; hits with a dose series show IC50 in µM; 260,000 tested, 0.57% active; TR-FRET GST-Vif / biotin-A3G peptide binding; higher % means a stronger effect; test concentration not given here; strong numbers were not always called active;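 active = above the screen mean plus three standard deviations and confirmed in dose response; inconclusive = results disagree or hit not tested in dose response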;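 also: Vif residues 1-94 fused to GST binding biotinylated APOBEC3G peptide 110-148; 0% = full assay without inhibitor and 100% = GST in place of GST-Vif; retest series ran down from 100 µM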
RanGTP-Imp inh – inhibitors of RanGTP-importin-beta interaction, primary screen, biochemical, FRET, CFP-Ran, YFP-importin-beta, homogeneous. cell-free CFP-Ran/YFP-importin-beta FRET ratio. inhibition, % (concentration not given with the values). 300,000 tested, 1.1% active. AID 2216;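 active = most replicates above 15%; inconclusive = exactly half above 15%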;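 also: 0% = DMSO wells and 100% = Ran loaded with GDP instead of GTP; wells of about 40 µL received 100 nL stock; the first replicate is given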
T cruzi inh – blocks replication of Trypanosoma cruzi; T. cruzi beta-gal in NIH3T3, luminescence, 90 h; inhibition, % (no concentration beside the values); 300,000 tested, 1.4% active; AID 1885;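 active = mean inhibition across valid replicates above about 55%, limit read from the data; inconclusive = mean below that limit but half or more replicates reach it; inactive = mean below it, under half of replicates reach it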;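 also: signal also drops with host cell toxicity which is not excluded here; 0% = plate median of DMSO wells and 100% = zero luminescence signal; higher percent means less beta-gal luminescence so fewer parasites; stock transfer was 50 nL into about 50 µL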
AF4-AF9 inh – blocks AF4 peptide binding to human AF9; P42568; AID 651704; inhibition, % at 10 µM; 350,000 tested, 0.47% active; AlphaScreen, biotin-AF4 peptide binding to FLAG-AF9;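 active = every replicate reaching a set inhibition limit, whatever the replicate mean, cut at about 25% in these data; inconclusive = mean inhibition reaches that limit but some replicates miss it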;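 also: 0% = plate neutral control median and 100% = total signal loss; the record names both 10 and 1 µM as test concentration; the first replicate is given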
Target sequence (P42568 whole entry, looked up): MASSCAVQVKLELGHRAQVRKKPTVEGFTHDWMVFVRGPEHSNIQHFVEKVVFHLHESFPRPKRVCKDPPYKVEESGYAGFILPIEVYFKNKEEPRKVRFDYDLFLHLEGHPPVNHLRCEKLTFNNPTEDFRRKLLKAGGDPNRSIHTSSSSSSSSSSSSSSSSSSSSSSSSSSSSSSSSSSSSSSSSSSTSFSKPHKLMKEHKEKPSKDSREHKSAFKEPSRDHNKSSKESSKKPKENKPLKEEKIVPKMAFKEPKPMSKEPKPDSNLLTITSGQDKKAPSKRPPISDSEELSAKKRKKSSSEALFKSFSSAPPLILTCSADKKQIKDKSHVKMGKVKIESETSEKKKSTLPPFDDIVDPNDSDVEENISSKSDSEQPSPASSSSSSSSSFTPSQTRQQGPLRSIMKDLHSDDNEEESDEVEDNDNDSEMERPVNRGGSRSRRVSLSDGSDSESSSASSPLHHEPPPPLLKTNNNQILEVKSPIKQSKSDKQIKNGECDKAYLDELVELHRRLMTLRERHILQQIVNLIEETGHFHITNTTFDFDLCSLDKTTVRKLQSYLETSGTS
Beta cell apopt – beta cell apoptosis inhibition; protection from apoptosis, % (no concentration beside the values); INS-1E cytokine-induced death, ATP luminescence, 48 h; percent of positive-control rescue, neutral wells zero; 300,000 tested, 0.8% active; AID 435005;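 active = all replicates at 75% or more, or half of them and the mean; inconclusive = half reach 75% but not the mean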;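 also: 0% = cytokine-treated negative control wells and 100% = positive control rescue; higher means more ATP so stronger rescue from cytokine killing; wells of about 40 µL received 100 nL stock; the first replicate is given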
Ecoli rRNA inh OD600 – also measured in Ecoli rRNA inh; calls as there; OD600 change, %; measured here: OD600 growth;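 optical density of the mix in the first replicate; 0 = DMSO median and -100 = no signal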
Ecoli rRNA inh RFP – further read-out of Ecoli rRNA inh, marked with its call; RFP signal change, %; measured here: RFP humanized mutant strains;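 first replicate; 0 = DMSO median and -100 = no signal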
* = called active by the depositor; ? = inconclusive; · = no result given.

SMILES | Bfl-1 A1 inh | Calb FLC | Ecoli rRNA inh | Ecoli rRNA inh OD600 | Ecoli rRNA inh RFP | Vif TR-FRET | RanGTP-Imp inh | T cruzi inh | AF4-AF9 inh | Beta cell apopt
Cc1ccc(-c2nc3ccccc3c(=O)n2-c2ccncc2)cc1 | 1.0 | -20 | · | · | · | · | 4.2 | 6 | · | -2
CCC(C)NC(=O)c1c(N)n(CC2CCCO2)c2nc3ccccc3nc12 (stereo not drawn) | -1.0 | 0 | · | · | · | 11% | 4.6 | 19 | · | -4
CC(=O)NC1CC2CCC(C1)N2 (stereo not drawn) | -0.2 | -13 | · | · | · | -5% | -1.5 | -6 | · | -1
CCOC(=O)C1(CCc2ccccc2)CCN(Cc2ccc(NC(C)=O)cc2)CC1 | 0.9 | -10 | -2 | -7 | 2.5 | 4% | -3.5 | -6 | 4.8 | ·
Cn1cccc1/C=C1/C(=O)NC(=S)N(Cc2ccc(F)cc2)C1=O | 1.1 | 5 | 0 | 3 | 11 | 1.2µM* | -2.0 | -7 | 11 | 6
COc1ccc(OC(=O)N(C)C)c(CN(C)C)c1 | 0.2 | -6 | · | · | · | 0% | -2.8 | -8 | · | -3
Cc1cc(OC(=O)c2ccco2)c2c3c(c(=O)oc2c1)CCC3 | 0.4 | 18 | 4 | 1 | -2.1 | 27% | 5.6 | -6 | 1.7 | -3
CC(C)c1oc(=O)cc2c1[C@@H](O)[C@H]1OC(=O)[C@@]3(C)C[C@@H](O)[C@@H](O)[C@@]2(C)C13 (stereo partly drawn) | -0.1 | 15 | 6 | 12 | -1.7 | 0% | 2.2 | -23 | 2.3 | 12
c1cc2c(cc1[C@H]1OC[C@H]3[C@@H]1CO[C@@H]3c1ccc3c(c1)OCO3)OCO2 | -0.5 | · | -4 | -21 | 0.7 | 4% | -1.7 | -17 | 1.5 | ·
CCOC(=O)c1c(NC(=O)c2c(N)n(CCCOC)c3nc4ccccc4nc23)sc2c1CCCC2 | -0.3 | -16 | 10 | 3 | 1.3 | -2% | 6.4 | 64* | -5.2 | 2
COC(=O)c1ccccc1OP1(=O)COc2ccccc2OC1 | -1.2 | -5 | · | · | · | ? | -3.2 | -8 | · | 2
COCCNC(=O)N1[C@H]2CC[C@@H]1C(C(=O)OC)=C(c1ccc(OC(F)(F)F)cc1)C2 | 0.0 | · | 12 | 4 | 12 | · | · | · | -0.1 | -3
CCN(CC)CCN/N=C(\C)c1c(O)[nH]c(=O)[nH]c1=O | 2.1 | 1 | -4 | -3 | 0.1 | -6% | 6.0 | -20 | -1.8 | -3
CCOC(=O)C1C(=O)NC23CCCC2C1c1ccccc1O3 (stereo not drawn) | 0.7 | 20 | · | · | · | 1% | 2.4 | -15 | · | -6
CCOc1ccc(-c2cc(C)[n+](CCO)c(-c3ccc(OCC)cc3)c2)cc1 | 1.9 | 92* | -52 | -77 | -14 | · | 3.9 | 72* | -0.2 | 37
CCOC(=O)c1c(-c2ccccc2)oc2ccc(OC(=O)N(C)C)cc12 | 0.8 | -27 | · | · | · | ? | -1.0 | 19 | · | 6
C=CCn1c(=O)c(C=Nc2c(OC)cccc2[N+](=O)[O-])c(O)n(CCCC)c1=O | 0.3 | -7 | 6 | 6 | 1.7 | -10% | ? | -5 | 7.3 | -5
COC(=O)C(O)(c1ccc(N(C)C(=O)c2ccc(Cl)c(Cl)c2)cc1)C(F)(F)F (stereo not drawn) | -0.3 | -4 | · | · | · | -1% | 1.3 | 6 | · | -7
CCCCN1C(=O)NC(=O)C2(Cc3c(nc4ccccn4c3=O)N3CCc4ccccc4C32)C1=O (stereo not drawn) | 0.6 | 31 | · | · | · | ? | 4.2 | 19 | · | 5
O=C(Nc1ccc(Br)cc1)c1nn(C23CC4CC(CC(C4)C2)C3)cc1Br | 0.4 | -8 | · | · | · | -7% | 0.8 | · | · | -2
O=C(c1ccc(Cl)cc1)C1CCCN(Cc2ccon2)C1 (stereo not drawn) | 0.2 | 10 | 1 | -11 | -0.9 | 0% | 1.4 | 6 | 0.3 | -6
Cn1c(=O)[nH]c2nncnc2c1=O | 0.1 | 4 | -12 | -25 | 0.7 | · | -1.7 | -4 | 0.8 | 1
O=C(c1ccc(F)cc1Cl)N1CCC2(CC1)OCCO2 | -0.4 | -5 | 6 | 6 | 2.5 | · | 4.0 | -9 | -4.5 | 3
COc1cccc(N(C(C)=O)C2=NCCCS2)c1 | -0.4 | 0 | 8 | 10 | -2.6 | · | 1.1 | -16 | 1.7 | -8
O=C(Nc1ccc(Cl)cc1C(=O)c1ccccc1)c1ccccc1 | 0.5 | -30 | · | · | · | -3% | -2.6 | 4 | · | 0
COc1ccccc1OCC#CCN1CCOCC1 | 0.2 | 4 | 12 | 17 | -0.7 | 2% | 2.4 | -8 | -4.7 | -2
COc1ccc(-c2nc3ccccc3c(=O)n2-c2ccc(OC)cc2)cc1 | 0.5 | 34 | -3 | -4 | -0.4 | 13% | -1.2 | 4 | -14 | 0
CC1CN=C(NCc2ccncc2)S1 (stereo not drawn) | -0.2 | -5 | · | · | · | 7% | 0.2 | -9 | · | 4
CC(=NCc1ccco1)c1c(O)n(C)c(=O)n(C)c1=O | -0.7 | -3 | · | · | · | 3% | -1.7 | -10 | · | -2
CN(C)C(=O)Nc1cccc(OC(=O)N(C)C)c1 | 0.5 | 16 | · | · | · | -7% | -0.5 | 11 | · | -1
CC(=NCCc1ccccc1)c1c(O)[nH]c(=O)[nH]c1=O | 0.4 | 0 | 3 | 4 | 0.1 | 2% | 1.6 | 10 | 1.4 | ·
COc1ccc(OCC(=O)N2CCN(Cc3nc4cc([N+](=O)[O-])ccc4n3C)CC2)cc1 | -0.5 | 1 | 1 | -1 | 0.8 | 8% | 9.1 | 19 | -1.4 | 20
COc1ccccc1Sc1ccccc1CC(C)N (stereo not drawn) | -0.6 | -12 | · | · | · | 24% | 3.6 | -2 | · | 5
O=S(=O)(c1ccc(Cl)cc1)N1CN2CCN(C2)C1 | 0.2 | 2 | · | · | · | -2% | 0.7 | 0 | · | -4
COC(=O)[C@]12OC[C@]34C([C@@H](O)[C@@H]1O)[C@]1(C)CC(=O)C(O)=C(C)[C@@H]1C[C@H]3OC(=O)[C@H](O)[C@@H]24 (stereo partly drawn) | 0.3 | 2 | 15 | 7 | 2.3 | 7% | -2.7 | 3 | 0.3 | 27
COc1ccc(N2C(=O)/C(=C/c3ccc(OC)c(OC)c3)C(=O)NC2=S)cc1 | 0.4 | -4 | 4 | 6 | 4.4 | · | ? | -11 | -2.5 | -4
O=C(CCN1CCCCC1)Nc1ccc(Br)cc1C(=O)c1ccccc1 | -0.9 | 5 | 2 | -8 | -10 | -3% | -2.6 | -2 | 8.9 | -9
O=c1[nH]c(=O)n(CCc2ccccc2)c(O)c1C=NCCCn1ccnc1 | -1.5 | -9 | · | · | · | 1% | 2.8 | -19 | · | -1
Clc1ccc(CO/N=C(\Cn2ccnc2)c2ccc(Cl)cc2Cl)c(Cl)c1 | 0.6 | · | · | · | · | · | 7.6 | 68* | · | 88*
O=C1NC(=O)N(c2ccccc2)C(=O)/C1=C/c1ccc([N+](=O)[O-])s1 | 0.0 | 60 | 6 | 10 | 15 | ? | -3.9 | 23 | 2.5 | 5
O=C(O)C1CN2CCC1CC2 (stereo not drawn) | 0.1 | -7 | 26 | 19 | 2.7 | ? | 1.0 | -9 | · | -6
Cc1cc(C(=O)CS(=O)(=O)c2ccc(F)cc2)cc(C)c1OC(=O)N(C)C | 0.1 | -2 | 2 | 3 | 1.1 | -3% | 3.2 | 35 | 1.6 | 1
COc1ccc(C(=O)O/N=C(/C(N)=O)P(=O)(OC(C)C)OC(C)C)cc1 | 1.1 | 15 | 17 | 10 | 4.2 | -2% | 3.8 | 10 | -2.4 | -3
COc1cccc(C(=O)C2CCCN(Cc3cnn(C(C)C)c3)C2)c1 (stereo not drawn) | 0.3 | -11 | 2 | 3 | 4.5 | 10% | -0.3 | 39 | 0.7 | -4
CCC(=NCCC1=CCCCC1)c1c(O)[nH]c(=O)[nH]c1=O | 0.5 | -1 | · | · | · | -3% | -0.7 | -20 | · | 3
CCCOc1ccc(C(C)=O)cc1Cc1c(O)[nH]c(=S)[nH]c1=O | 0.4 | 2 | -20 | -10 | -0.7 | · | 0.0 | -13 | 2.6 | -2
O=C(CCC(=O)N1C[C@H]2C[C@@H](C1)c1cccc(=O)n1C2)NCc1cccc(C(F)(F)F)c1 | 0.5 | -7 | 6 | -2 | -1.8 | · | -7.2 | -6 | -1.4 | ·
O=C(COc1ccccc1)N1CCN(C/C=C/c2ccccc2)CC1 | 0.9 | -6 | · | · | · | -8% | 0.9 | -2 | · | 3
COc1ccc(N=Cc2c(O)n(-c3ccc(C)cc3)c(=O)[nH]c2=O)cc1 | -0.6 | -2 | 26 | 19 | 0.4 | 3% | -31 | -11 | -0.6 | 1
CCOC(=O)c1cc(CC)sc1/N=C/c1c(O)[nH]c(=S)[nH]c1=O | -0.4 | 9 | · | · | · | ? | -3.6 | -7 | · | -1
CCN(CC)CCCOC(=O)C(OC(C)C)(c1ccccc1)c1ccccc1 | 0.4 | -33 | · | · | · | · | -0.8 | 33 | · | ·
CCN1C(=O)C(=Cc2ccc(N3CCOCC3)o2)C(=O)N(CC)C1=S | 0.3 | 25 | 8 | 12 | 16 | 11% | -7.4 | 5 | -12 | -19
COc1ccc(C(=O)Cn2c(NCCCl)nc3ccccc32)cc1 | 0.5 | -3 | -5 | 5 | 1.3 | · | 3.1 | 3 | 0.4 | -3
O=CNc1ccc(OP(=O)(Oc2ccccc2)Oc2ccccc2)cc1 | 0.0 | -16 | -8 | -21 | 2.9 | · | 0.9 | 10 | 3.2 | -2
Cc1ccc(N2C(=O)CC(=O)NC2=O)cc1Cl | -1.1 | 7 | -6 | -2 | -2.8 | 0% | 5.6 | -8 | -0.9 | -2
Oc1cc(Cl)ccc1Oc1ccc(Cl)cc1Cl | -1.0 | -16 | · | · | · | · | 5.3 | -10 | 0.9 | 3
C(=NC12CN3CN(CN(C3)C1)C2)c1cccnc1 | 0.3 | 2 | · | · | · | 2% | 1.6 | -4 | · | -4
O=C(Cc1ccc(Cl)cc1)NCCN1CCN(C(=O)Cc2ccc(Cl)cc2)CC1 | 1.2 | 3 | -13 | -9 | -0.7 | · | 1.3 | 2 | -2.2 | 5

This is a subset (hit frequency here may not be typical).
